Screening data from PubChem.
KCNQ2 pot: enhances the rat KCNQ2 potassium channel; O88943; CHO-K1 KCNQ2, FluxOR thallium flux fluorescence; stronger effect = higher value; actives 0.54% (n = 310,000); B-score at 10 µM;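 active = fluorescence ratio B-score at least 3 SD of library B-scores, with initial fluorescence B-score within 3 SD, cut at about 5.3 in these data; same plate scores as AID 2156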;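 also: B-score of peak minus minimum over baseline fluorescence ratio after K+ and Tl+ stimulus; positive B-score means potentiation of KCNQ2 with more thallium influx and brighter signal; only the inactives scoring about 0 or higher are listed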
Target sequence (O88943 whole entry, looked up): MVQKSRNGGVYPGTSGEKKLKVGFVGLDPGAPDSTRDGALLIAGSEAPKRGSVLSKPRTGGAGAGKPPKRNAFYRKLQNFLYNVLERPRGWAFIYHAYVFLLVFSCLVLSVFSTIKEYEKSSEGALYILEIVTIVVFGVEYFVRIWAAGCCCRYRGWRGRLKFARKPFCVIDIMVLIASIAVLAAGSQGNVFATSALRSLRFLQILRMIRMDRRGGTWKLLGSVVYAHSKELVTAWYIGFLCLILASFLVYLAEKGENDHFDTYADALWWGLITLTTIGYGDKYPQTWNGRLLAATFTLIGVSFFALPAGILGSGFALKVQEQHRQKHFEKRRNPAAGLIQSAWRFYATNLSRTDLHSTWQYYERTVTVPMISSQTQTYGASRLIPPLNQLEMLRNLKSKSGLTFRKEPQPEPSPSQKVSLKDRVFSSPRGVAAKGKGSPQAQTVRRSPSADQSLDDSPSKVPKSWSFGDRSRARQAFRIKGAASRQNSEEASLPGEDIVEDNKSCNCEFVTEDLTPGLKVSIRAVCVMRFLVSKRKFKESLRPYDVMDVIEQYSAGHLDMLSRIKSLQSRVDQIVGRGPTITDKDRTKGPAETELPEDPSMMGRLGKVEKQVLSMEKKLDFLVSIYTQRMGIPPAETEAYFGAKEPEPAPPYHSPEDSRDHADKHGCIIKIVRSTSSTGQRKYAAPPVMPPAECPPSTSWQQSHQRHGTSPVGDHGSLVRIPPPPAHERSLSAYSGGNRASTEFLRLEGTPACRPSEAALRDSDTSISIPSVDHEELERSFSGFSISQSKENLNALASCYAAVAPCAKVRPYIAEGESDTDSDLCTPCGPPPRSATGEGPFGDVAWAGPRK
KCNQ2 pot baseline: also measured in KCNQ2 pot; calls as there; B-score; compound at 10 µM; measured here: initial fluorescence intensity artifact check;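 brightness before thallium and not channel activity; 0 = typical well and far values either way flag optical interference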
An asterisk follows results filed as active. These rows are one share of the data (hit frequency here may not be typical).

item	smiles	KCNQ2 pot	KCNQ2 pot baseline
1	O=[N+]([O-])c1ccc(N2CCNCC2)cc1NCC1CCCO1 (stereo not drawn)	0.68	-0.4
2	COc1ccc(CC2c3cc(OC)c(OC)cc3CCN2C)cc1O (stereo not drawn)	0.73	2.3
3	O=C(c1ccc(N2CC3CC(C2)c2cccc(=O)n2C3)c([N+](=O)[O-])c1)N1CCCC1 (stereo not drawn)	0.65	1.2
4	CC(=O)OC1(c2ccc(C)cc2)CN2CCC1c1ccccc12 (stereo not drawn)	1.6	-0.88
5	COc1ccc(N=C(C)c2c(O)n(C3CCCCC3)c(=O)[nH]c2=O)c(OC)c1	1.3	-1.4
6	O=c1[nH]c(=O)n(C2CCCCC2)c(O)c1/C=C/C=Nc1ccccc1	0.15	0.97
7	Cc1ccc(CN2CCCN(Cc3ccc(Cl)cc3)S2(=O)=O)cc1	0.15	-1.7
8	Cc1cc(N2C(=O)CC(N3CCC(n4c(=O)[nH]c5ccccc54)CC3)C2=O)no1 (stereo not drawn)	2.1	-0.57
9	CCCC(=O)NC(Oc1ccc(Cl)cc1Cl)C(Cl)(Cl)Cl (stereo not drawn)	1.4	0.48
10	C/C(=N\NC(=O)c1ccccc1)c1c(O)n(C2CCCCC2)c(=O)[nH]c1=O	1.5	-0.67
11	Cc1ccc(NC2=NCCCS2)cc1Cl	0.8	-0.94
12	O=C1C=Cc2ccccc2C1=O	0.23	-0.92

item	smiles	KCNQ2 pot	KCNQ2 pot baseline
13	O=C(NCC(c1cccnc1)N1CCOCC1)Oc1ccccc1 (stereo not drawn)	0.5	-0.64
14	O=c1[nH]c2ccccc2n1CCCN1CCC(n2c(=O)[nH]c3cc(Cl)ccc32)CC1	1	-0.54
15	COCCNCCOc1ccc(C(C)(C)c2ccccc2)cc1	1.4	-0.05
16	CN1C(=O)C(=Cc2sc(=O)n(-c3ccccc3)c2N2CCCCC2)C(=O)N(C)C1=O	0.06	1.1
17	CC1CCCCN1Cc1ccc(Cl)nc1 (stereo not drawn)	0.59	0.13
18	CC1CN=C(Nc2ccc(F)c(Cl)c2)S1 (stereo not drawn)	2.5	-0.48
19	CCOC(=O)N(C)c1ccc(C(O)(C(=O)OCC)C(F)(F)F)cc1 (stereo not drawn)	0.47	1.4
20	Cc1cc(N)n(C2CCN(C)CC2)n1	0.15	-0.22
21	CC(=O)N1CCC2(CC1)CC(=O)c1cc(OCC(=O)N3CCC4(CC3)OCCO4)ccc1O2	0.45	-1.8
22	Cc1cccc(CN2CCN(C(=O)Cc3ccccc3)CC2)c1	0.16	0.06
23	O=C(Nc1ccc(C(F)(F)F)cc1)c1cccn(Cc2ccc3c(c2)OC(F)(F)O3)c1=O	0.17	-1.4
24	O=c1[nH]c(=O)n(Cc2ccco2)c(O)c1/C=N/N1CCCCCC1	1.7	-1.1

item	smiles	KCNQ2 pot	KCNQ2 pot baseline
25	O=C(Cc1ccccc1)N1CCN(C2CCCCCC2)CC1	0.27	-0.89
26	O=C(O)Cn1cc(C(=O)c2ccccc2)c2ccccc21	0.01	0.75
27	Cc1ccccc1-n1c(C)nc2ccsc2c1=O	1.7	-0.52
28	CCc1ccc(CN2CCN(C(=O)Cc3ccccc3)CC2)cc1	0.08	-1.1
29	Cc1cc(C)cc(NC(=O)CCNC(=O)N2C[C@H]3C[C@@H](C2)c2cccc(=O)n2C3)c1	0.84	0.02
30	C=C(CO)CC1CC(O)[C@]2(C)OC3CC4OC5C[C@]6(C)O[C@]7(C)CCC8OC9C[C@]%10(C)OC%11C(C)=CC(=O)OC%11CC%10OC9C[C@@H](C)C8OC7CC6O[C@]5(C)C/C=C\C4OC3CC2O1 (stereo partly drawn)	0.1	3.1
31	CC(=O)c1ccc(-c2ccccc2)cc1	0.72	-1.8
32	O=C(C[n+]1ccn(CCCNP2(=O)C=C(c3ccccc3)OC(c3ccccc3)=C2)c1)c1ccccc1	0.84	0.04
33	COCCNC(=O)CN1C(=O)C(C)N=C(c2ccccc2)c2cc(Cl)ccc21 (stereo not drawn)	0.16	0.06
34	COc1cccc(CN2CCN(C(=O)Cc3ccccc3OC)CC2)c1	0.85	-0.02
35	O=C1NC(=O)N(c2ccccc2F)C(=O)/C1=C/c1cn(CC(=O)N2CCOCC2)c2ccccc12	0.28	2.3
36	CCOc1cc(CNCCc2cccc(F)c2)ccc1OC	0.97	0.69

item	smiles	KCNQ2 pot	KCNQ2 pot baseline
37	C(#CCN1CCOCC1)COCC#Cc1ccccc1	0.83	-0.01
38	NCC(CC(=O)O)C1CCCCC1 (stereo not drawn)	1.3	-0.25
39	COc1ccc(C(=O)C2CCCN(Cc3cnc(C)s3)C2)c(OC)c1 (stereo not drawn)	0.09	0.81
40	CCOC(=O)c1cc(C(O)(C(=O)OC)C(F)(F)F)c(/N=C/N(C)C)o1 (stereo not drawn)	2.1	0.61
41	CCN(CC)C(=O)c1ccc(NC(=O)c2cccc(F)c2)cc1	2	0.65
42	O=C(O)C1C2c3ccccc3C(c3ccccc32)C1C(=O)Nc1ccccc1 (stereo not drawn)	1.9	1
43	CCC(=NCCc1ccccc1)c1c(O)[nH]c(=O)[nH]c1=O	0.34	-0.05
44	Clc1cccc(CNCCc2c[nH]c3ccccc23)c1	0.27	-2.1
45	COc1cc(OC)c(OC)cc1CN1CCN(C(=O)COc2ccc3ccccc3c2)CC1	0.98	0.03
46	COc1ccc(CN2CCN(c3ccccc3F)CC2)cc1O	0.68	1.1
47	COc1ccc(/C=C/C(=O)NC(=S)N2C[C@H]3C[C@H](C2)c2cccc(=O)n2C3)cc1OC	0.06	0.58
48	C=CCn1c(O)c(C(C)=Nc2ccc(C(=O)OCC)cc2)c(=O)[nH]c1=O	0.17	0.79

item	smiles	KCNQ2 pot	KCNQ2 pot baseline
49	Cc1ccc(N2C(=O)NC(=O)/C(=C/C=C/c3ccco3)C2=O)cc1	1.1	0.34
50	Cc1cc(C)n2nc(C)[n+](C)c2n1	0.04	-0.34
51	CN1CCC(N(C)Cc2cccnc2)CC1	1.7	-2.2
52	CN(C)CC1CSCCC1(O)c1ccccc1Cl (stereo not drawn)	0.32	-0.93
53	COc1cccc(CNCCc2cccc(F)c2)c1OC	2.1	-0.85
54	OC(Cn1c2ccccc2c2ccccc21)C[n+]1cccc2ccccc21 (stereo not drawn)	0.64	-2.2
55	Cn1c(O)c(C=NCCN2CCOCC2)c(=O)n(C)c1=S	0.82	0.12
56	C[C@H]1CCCC(=O)CCCCCc2cc(O)cc(O)c2C(=O)O1	1.1	-0.08
57	O=C1/C(=C\c2cccnc2)N2CCC1CC2	0.74	0.15
58	CCOC(=O)c1c(C)n(CCOC)c2ccc(O)cc12	0.12	-1.8
59	Cc1ccsc1CNCCc1ccccc1F	0.19	0.88
60	OC1(CN2CCOCC2)C2CC3CC(C2)CC1C3 (stereo not drawn)	0.01	0.08

item	smiles	KCNQ2 pot	KCNQ2 pot baseline
61	Cc1ccc(C(=O)N/C(=C\Cl)P(=O)(c2ccccc2)c2ccccc2)cc1	1.1	-0.17
62	O=C(NC1CN2CCC1CC2)c1cccc(Cl)c1 (stereo not drawn)	0.42	-2
63	CCCCCn1c(=O)c(C(=O)Nc2nc3ccccc3[nH]2)c(O)c2ccccc21	0.84	0.45
64	CC(C(=O)c1ccccc1)N1C(=O)c2ccccc2C1=O (stereo not drawn)	0.45	-1.2
65	Cc1nn(-c2ccccc2)c(C)c1NC(=O)COC(=O)Cc1ccccc1	1.4	-1.2
66	CC(C)Oc1cccc(C(=O)C2CCCN(C3CCOCC3)C2)c1 (stereo not drawn)	0.11	0.15
67	Cc1cc(/C=C2\C(=O)NC(=O)N(c3ccc(Cl)cc3)C2=O)c(C)n1C	0.66	0.64
68	CC(=O)c1ccccc1NC(=O)C1C2CCC(O2)C1C(=O)O (stereo not drawn)	0.88	0.24
69	O=C(c1ccccc1)c1ccccc1N=Cc1c(O)[nH]c(=O)[nH]c1=O	2.7	-1.2
70	O=C1NC(=S)N(c2ccc(Br)cc2)C(=O)/C1=C/N1CCN(C(=O)c2ccco2)CC1	0.25	-2
71	O=c1[nH]c(O)c(C=Nc2cc(F)cc(F)c2)c(=O)[nH]1	2.4	-1.4
72	Cc1nn(Cc2c(Cl)cccc2Cl)c(Cl)c1C(=O)O	0.79	0.52

Single records, as listed above. Values in the order: KCNQ2 pot	KCNQ2 pot baseline
Entry for `O=C(c1ccccc1)c1ccccc1N=Cc1c(O)[nH]c(=O)[nH]c1=O` → 2.7	-1.2
Entry for `CCCCCn1c(=O)c(C(=O)Nc2nc3ccccc3[nH]2)c(O)c2ccccc21` → 0.84	0.45
Entry for `O=c1[nH]c(O)c(C=Nc2cc(F)cc(F)c2)c(=O)[nH]1` → 2.4	-1.4

(list continues)
item	smiles	KCNQ2 pot	KCNQ2 pot baseline
73	CSCc1nnc2n1-c1ccc(Cl)cc1C(c1ccccc1)=NC2	0.79	-0.58
74	CCCCn1c(=O)c(C(=O)Nc2ccccc2S(N)(=O)=O)c(O)c2ccccc21	0.05	0.34
75	COc1ccc(-c2nc(CS(=O)CC(=O)N3CCC4(CC3)OCCO4)c(C)o2)cc1 (stereo not drawn)	0.59	1.1
76	CCN(CC)C(=O)c1ccc2c(c1)C1C(Cl)C(Sc3ccccc3[N+](=O)[O-])CC1C(C(=O)O)N2 (stereo not drawn)	0.03	1.6
77	COc1ccccc1N1CCN(Cc2ccc(SC)cc2)CC1	0.84	-0.59
78	COc1ccc(CN2C(=O)NC(=O)/C(=C\c3ccco3)C2=O)cc1	0.09	1
79	O=C(C1CCN(S(=O)(=O)c2ccccc2)CC1)N1CCC2(CC1)OCCO2	0.24	0.08
80	O=C(Cn1cc(C(=O)c2ccccc2F)c2ccccc21)NC1CC1	0.01	0.74
81	COc1cccc(C2(O)CCN(Cc3ccncc3)CC2)c1	0.01	0.08
82	COC(=O)c1ccccc1NC(=O)N1C[C@@H]2C[C@@H](C1)c1cccc(=O)n1C2	0.54	1.3
83	Cn1c(O)c(/C=N/N2CCOCC2)c(=O)n(C)c1=S	0.93	-0.82
84	CCOC(=O)CNC(=O)CSP(=S)(OCC)OCC	0.55	0.33

item	smiles	KCNQ2 pot	KCNQ2 pot baseline
85	CC(C)(C)C(O)C(Oc1ccc(Cl)cc1)n1cncn1 (stereo not drawn)	1.2	-0.4
86	O=P(O)(Oc1ccccc1)OC(c1ccccc1)C(F)(F)F (stereo not drawn)	0.26	0.75
87	CN(C)c1ccc(C(=O)N/N=C/C23CC[C@@H](O)CC2(O)CC[C@@H]2[C@@H]3CCC3(C)C(C4=CC(=O)OC4)CCC23O)cc1 (stereo partly drawn)	1.3	0.79
88	Cc1ccccc1NC1(C#N)CCCCC1	0.25	0.69
89	c1ccc(-c2nnc(C3CC(c4cccnc4)=NO3)o2)cc1 (stereo not drawn)	0.68	0.71
90	N#Cc1c(Cl)nc(Cl)c2c1CCN(Cc1ccccc1)C2	0.14	-1.7
91	CCCCn1c(O)c(/C=N/N2CCOCC2)c(=O)[nH]c1=S	0.19	-1.8
92	CC(C)C(=O)Nc1ccc(N2CCN(C)CC2)c(F)c1	1.7	0.14
93	Cc1cccc(NC2=NCCCS2)c1	0.05	-1.4
94	O=c1[nH]c(=S)n(Cc2ccc(F)cc2)c(O)c1C=NCCCn1ccnc1	0.45	1.9
95	CCOCCCNC(=O)CN1C2CCC1CC(O)(c1ccc(OC)cc1)C2 (stereo not drawn)	0.63	-0.44
96	COc1ccccc1-n1c(-c2ccoc2)nc2ccccc2c1=O	0.26	-3.2

item	smiles	KCNQ2 pot	KCNQ2 pot baseline
97	COc1cccc(OC)c1C(=O)NC(=S)N1C[C@H]2C[C@H](C1)c1cccc(=O)n1C2	0.4	0.96
98	CC(C)C(=O)Nc1ccc(S(=O)(=O)N2CC3CC(C2)c2cccc(=O)n2C3)cc1 (stereo not drawn)	0.43	-0.21
99	S=P(Nn1cnnc1)(c1ccc(Br)cc1)c1ccc(Br)cc1	1.2	-3.4
100	CC(=NCCCO)c1c(O)n(Cc2ccccc2)c(=O)[nH]c1=O	0.01	2.9
101	CC1NCCC2(O)CCCCC12 (stereo not drawn)	1.2	0.9
102	O=C(CCl)NCC1CCCO1 (stereo not drawn)	0.07	-0.05
103	C=CCn1c(O)c(C(C)=NCCc2c[nH]c3ccccc23)c(=O)[nH]c1=O	0.04	0.1
104	Cc1ccc(N2C(=O)NC(=O)/C(=C/c3cnc(-c4ccccc4)nc3)C2=O)cc1C	2.5	-0.11
105	COc1cc(OC)c(C=O)c(OC(=O)N(C)C)c1	1.1	0.17
106	CCCCC(CC)CNCC(O)c1ccccc1 (stereo not drawn)	0.39	0.78
107	CN1CCCCC1c1ccc(-c2cccnc2)nc1 (stereo not drawn)	0.46	0.48
108	CN1CCN(CCC(=O)OC2CC3CCC(C2)N3C)CC1 (stereo not drawn)	0.02	1.2

item	smiles	KCNQ2 pot	KCNQ2 pot baseline
109	O=P(O)(Oc1ccccc1)OC(c1ccccc1)C(F)(F)C(F)(F)F (stereo not drawn)	0.47	-0.02
110	Cc1cc(OCCCC(=O)NCc2cccs2)ccc1Cl	0.07	-1.2
111	O=c1c2ccccc2nc(-c2ccco2)n1-c1ccc(Br)cn1	0.33	-0.6
112	CCc1ccc(-n2c(O)c(C(C)=O)c(=O)[nH]c2=O)cc1 (tested in a mixture with another compound)	0.86	-0.17
113	C=CCN(c1ccc(C(=O)N(CC)CC)cc1)S(C)(=O)=O	1.4	-0.05
114	Cc1nonc1OCCNCCNc1ccc([N+](=O)[O-])c2cccnc12	1.3	-0.55
115	COC(=O)C(=O)N1CC2(C)CNCC(C)(C1)C2=O	0.21	0.61
116	CN(C(=O)Oc1ccc(Cl)c2cccnc12)c1ccccc1	0.11	1.1
117	CCN1c2nc3c(C)cccn3c(=O)c2CC2(C(=O)N(C)C(=O)N(C)C2=O)C1C (stereo not drawn)	1.5	-0.65
118	O=C(c1cccs1)C1CN2CCC1CC2 (stereo not drawn)	0.1	1.4
119	COc1ccc(CNCCc2c[nH]c3ccccc23)c(OC)c1C	0.92	-0.83
120	COc1ccccc1CN1CCCC(C(=O)c2ccccc2OC)C1 (stereo not drawn)	0.01	-0.9
121	Cn1c(O)c(N=Nc2ccc(S(=O)(=O)N3CCOCC3)cc2)c(=O)n(C)c1=O	1.9	-0.95
122	Cc1cc(N(CCCl)CCCl)ccc1/C=N/NC(=O)c1ccco1	0.03	-1.9
